# Screening results as filed in PubChem.
# HIV Env fusion: inhibitors of HIV-1 Env-driven cell-cell fusion, primary screen, HeLa-JRFL effector, CEM21 target cells, luciferase | inhibition, % at 12.3 µM | 360,000 compounds, 1.1% hits | AID 651610, 2012;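 active = mean replicate inhibition score of at least 50 and every replicate individually at or above 50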;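 also: 0% = plate neutral controls and 100% = maraviroc near 300 nM; one replicate is shown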
# UUG fidelity: modulators of yeast start codon fidelity, primary screen, whole organism, S. cerevisiae, single point, plate reader; S. cerevisiae UUG-firefly luciferase reporter, luminescence/redox ratio; activity score, % at 18.7 µM; 350,000 compounds, 0.13% hits; AID 602363, 2012;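 active = replicate mean at a twofold rise or more, about +100% in these data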;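 also: firefly luciferase made from a UUG start codon reports start codon fidelity; reporter light over untreated wells divided by growth signal over untreated wells; some hits fall short of that in this replicate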
# * marks the source's active call; other numbers are inactive results; [ ] = another dose, or the depositor's remark.
SMILES,HIV Env fusion,UUG fidelity
CO[C@H]1CN(C)C(=O)c2cc(NC(=O)Nc3c(C)noc3C)ccc2OC[C@H](C)NC[C@@H]1C,2.5[16.7 µM],-6.6
C[C@H](CO)N1C[C@H](C)[C@@H](CN(C)S(C)(=O)=O)Oc2ncc(-c3ccc(F)cc3)cc2C1=O,16.5[16.7 µM],-3.7
CC(=O)N(C)C[C@@H]1Oc2ncc(C#CC(C)(C)O)cc2C(=O)N([C@@H](C)CO)C[C@H]1C,1.6[16.7 µM],-7.2
Cc1noc(C)c1NC(=O)N(C)C[C@@H]1Oc2ncc(/C=C/c3ccccc3)cc2C(=O)N([C@@H](C)CO)C[C@H]1C,9.4[16.7 µM],17.1
C[C@H](CO)N1C[C@H](C)[C@@H](CN(C)Cc2ccc(C(F)(F)F)cc2)Oc2ccc(NC(=O)Nc3ccccc3)cc2C1=O,-7.0[16.7 µM],12.6
Cc1noc(C)c1NC(=O)N(C)C[C@H]1Oc2ccc(NC(=O)Cc3cn(C)c4ccccc34)cc2CC(=O)N([C@H](C)CO)C[C@H]1C,-20.2[16.7 µM],2.5
CC(=O)N(C)C[C@H]1Oc2cc(C#Cc3ccncc3)ccc2S(=O)(=O)N([C@H](C)CO)C[C@H]1C,-10.2[16.7 µM],11.0
COc1ccc(NC(=O)Nc2ccc3c(c2)C(=O)N([C@@H](C)CO)C[C@@H](C)[C@H](CN(C)S(=O)(=O)c2ccc(C)cc2)OCCCC[C@@H](C)O3)cc1,17.7[16.7 µM],23.3
CCCNC(=O)N(C)C[C@@H]1Oc2ncc(C3=CCCC3)cc2C(=O)N([C@@H](C)CO)C[C@H]1C,12.9[16.7 µM],-3.3
COc1ccc(NC(=O)Nc2ccc3c(c2)C(=O)N([C@H](C)CO)C[C@H](C)[C@@H](CN(C)Cc2ccc(C(=O)O)cc2)OCCCC[C@@H](C)O3)cc1,-5.0[16.7 µM],-2.5
COc1cccc(C#Cc2ccc3c(c2)O[C@H](CN(C)C(=O)CN2CCOCC2)[C@@H](C)CN([C@H](C)CO)S3(=O)=O)c1,-15.3[16.7 µM],15.1
COc1ccc(S(=O)(=O)N(C)C[C@@H]2Oc3ccc(NC(=O)Cc4cn(C)c5ccccc45)cc3CC(=O)N([C@H](C)CO)C[C@@H]2C)cc1,75.9*[16.7 µM],3.7
CNC[C@@H]1Oc2cc(C#Cc3ccncc3)ccc2S(=O)(=O)N([C@H](C)CO)C[C@H]1C,-7.1[16.7 µM],-9.0
C[C@H](CO)N1C[C@H](C)[C@@H](CN(C)C(=O)NC2CCCCC2)OCCCC[C@H](C)Oc2ccc(NC(=O)c3ccccc3)cc2C1=O,-4.2[16.7 µM],9.1
Cc1noc(C)c1S(=O)(=O)N(C)C[C@@H]1OCCCC[C@H](C)Oc2ccc(NC(=O)CCCN(C)C)cc2C(=O)N([C@H](C)CO)C[C@@H]1C,-15.1[16.7 µM],8.6
C[C@@H]1CN([C@@H](C)CO)C(=O)c2cc(NS(=O)(=O)c3ccc(Cl)cc3)ccc2O[C@@H](C)CCCCO[C@@H]1CN(C)C(=O)c1ccccc1,-19.6[16.7 µM],5.4
CC(C)NC(=O)N(C)C[C@@H]1OCCCC[C@H](C)Oc2ccc(NS(=O)(=O)c3ccccc3)cc2C(=O)N([C@@H](C)CO)C[C@@H]1C,-40.3[16.7 µM],0.7
CCNC(=O)C[C@H]1CC[C@@H]2[C@H](COC[C@H](O)CN2Cc2ccncc2)O1,-15.4[16.7 µM],-24.4
C[C@H]1CN([C@@H](C)CO)C(=O)c2cc(C#CCc3ccccc3)cnc2O[C@@H]1CN(C)C(=O)C1CCCCC1,18.4[16.7 µM],1.1
CCC(=O)N(C)C[C@H]1Oc2cc(-c3ccccc3OC)ccc2S(=O)(=O)N([C@H](C)CO)C[C@@H]1C,-12.0[16.7 µM],5.7
Cc1noc(C)c1S(=O)(=O)N(C)C[C@@H]1Oc2ccc(NC(=O)C3CC3)cc2CC(=O)N([C@@H](C)CO)C[C@H]1C,-14.2[16.7 µM],35.5
COc1ccc(S(=O)(=O)N(C)C[C@@H]2Oc3ccc(NS(=O)(=O)c4cn(C)cn4)cc3C(=O)N([C@@H](C)CO)C[C@H]2C)cc1,-4.5[16.7 µM],-4.7
COc1ccc(S(=O)(=O)Nc2ccc3c(c2)C(=O)N([C@@H](C)CO)C[C@H](C)[C@@H](CN(C)C(=O)c2ccccc2)OCCCC[C@H](C)O3)cc1,-28.7[16.7 µM],15.0
C[C@@H]1CCCCO[C@@H](CN(C)C(=O)Nc2ccc3c(c2)OCO3)[C@H](C)CN([C@H](C)CO)C(=O)c2cc(NC(=O)Nc3ccc(C(F)(F)F)cc3)ccc2O1,1.6[16.7 µM],-12.2
C[C@@H]1CN([C@H](C)CO)C(=O)c2cccc(NS(=O)(=O)c3ccccc3)c2O[C@@H]1CN(C)C(=O)Nc1ccc2c(c1)OCO2,-14.3[16.7 µM],1.5

# The closing two entries of the part above come first, to join the parts.
SMILES,HIV Env fusion,UUG fidelity
C[C@@H]1CCCCO[C@@H](CN(C)C(=O)Nc2ccc3c(c2)OCO3)[C@H](C)CN([C@H](C)CO)C(=O)c2cc(NC(=O)Nc3ccc(C(F)(F)F)cc3)ccc2O1,1.6[16.7 µM],-12.2
C[C@@H]1CN([C@H](C)CO)C(=O)c2cccc(NS(=O)(=O)c3ccccc3)c2O[C@@H]1CN(C)C(=O)Nc1ccc2c(c1)OCO2,-14.3[16.7 µM],1.5
C[C@@H]1CCCCO[C@@H](CN(C)C(=O)CCCN(C)C)[C@H](C)CN([C@@H](C)CO)C(=O)c2cc(NS(=O)(=O)c3ccc(F)cc3)ccc2O1,6.5[16.7 µM],9.4
O=C(Nc1ccc(Cl)c(Cl)c1)N[C@H]1CC[C@@H](CCn2cc(C3CCCCC3)nn2)O[C@H]1CO,-16.1[16.7 µM],-8.5
C[C@@H]1CN([C@H](C)CO)C(=O)c2cc(NC(=O)Cc3cn(C)c4ccccc34)ccc2O[C@H]1CN(C)Cc1ccc(Oc2ccccc2)cc1,-9.4[16.7 µM],4.0
CN(C)CC#Cc1ccc([C@H]2[C@@H](CO)N(C(=O)C3CCC3)[C@H]2C#N)cc1,-18.8[16.7 µM],-2.6
CCCNC(=O)N[C@@H]1CC[C@@H](CCNS(=O)(=O)c2cccc(F)c2)O[C@@H]1CO,-10.2[16.7 µM],-9.1
COc1ccc(S(=O)(=O)Nc2ccc3c(c2)C(=O)N([C@@H](C)CO)C[C@@H](C)[C@H](CN(C)C(=O)Nc2c(C)noc2C)OCCCC[C@H](C)O3)cc1,-15.8[16.7 µM],13.7
CNC[C@@H]1Oc2ccc(N(C)C)cc2CC(=O)N([C@@H](C)CO)C[C@H]1C,-14.4[16.7 µM],-7.6
COc1ccc(NC(=O)N(C)C[C@@H]2Oc3ccc(NC(=O)Cc4cn(C)c5ccccc45)cc3C(=O)N([C@H](C)CO)C[C@H]2C)cc1,1.9[16.7 µM],4.8
C[C@@H]1CN([C@@H](C)CO)C(=O)Cc2cc(NC(=O)CCCCCC(=O)Nc3ccccc3N)ccc2O[C@@H]1CN(C)Cc1ccccc1,1.8[16.7 µM],18.5
O=C(C[C@H]1CC[C@@H](NS(=O)(=O)c2ccccc2)[C@@H](CO)O1)NCc1ccncn1,-6.2[16.7 µM],-6.1
Cc1noc(C)c1S(=O)(=O)Nc1ccc2c(c1)C(=O)N([C@@H](C)CO)C[C@H](C)[C@H](CN(C)S(=O)(=O)c1cn(C)cn1)OCCCC[C@H](C)O2,12.2[16.7 µM],1.0
Cc1ccc(S(=O)(=O)N(C)C[C@@H]2OCCCC[C@H](C)Oc3ccc(NS(=O)(=O)c4ccc(Cl)cc4)cc3C(=O)N([C@H](C)CO)C[C@@H]2C)cc1,-26.8[16.7 µM],1.8
C[C@@H]1CN([C@H](C)CO)S(=O)(=O)c2ccc(Br)cc2O[C@H]1CN(C)S(=O)(=O)c1ccccc1,12.2[16.7 µM],13.0
O=S(=O)(N[C@@H]1CC[C@H](CCn2cc(-c3cccnc3)nn2)O[C@H]1CO)c1ccc(F)cc1,-18.7[16.7 µM],-11.2
Cc1ccc(S(=O)(=O)N[C@H]2CC[C@H](CCn3cc(C4CC4)nn3)O[C@@H]2CO)cc1,-14.6[16.7 µM],1.6
CCS(=O)(=O)N[C@H]1C=C[C@@H](CC(=O)Nc2ccc(-c3ccccc3)cc2)O[C@@H]1CO,-28.2[16.7 µM],-2.9
CCC(=O)N(C)C[C@H]1Oc2ncc(C#Cc3ccccc3)cc2C(=O)N([C@@H](C)CO)C[C@H]1C,-0.3[16.7 µM],1.4
C[C@H](CO)N1C[C@H](C)[C@H](CN(C)S(C)(=O)=O)OCCCC[C@H](C)Oc2ccc(NS(=O)(=O)c3cn(C)cn3)cc2C1=O,8.7[16.7 µM],-17.2
O=C(C[C@@H]1C[C@@H]2c3cc(NC(=O)Nc4ccc(C(F)(F)F)cc4)ccc3O[C@@H]2[C@H](CO)O1)NC1CCCCC1,-6.7[16.7 µM],-8.0
CC(C)NC(=O)Nc1cccc2c1O[C@H](CN(C)CC1CCCCC1)[C@H](C)CN([C@H](C)CO)C2=O,-10.9[16.7 µM],-3.9
C[C@@H]1CN([C@H](C)CO)S(=O)(=O)c2ccc(-c3cccnc3)cc2O[C@H]1CN(C)Cc1cncnc1,9.1[16.7 µM],-14.7
C[C@H](CO)N1C[C@H](C)[C@@H](CN(C)S(=O)(=O)c2cn(C)cn2)Oc2cc(C#Cc3ccccc3)ccc2S1(=O)=O,0.0[16.7 µM],1.1
CCC(=O)N1C[C@@H](O)COC[C@H]2O[C@@H](CC(=O)NCc3cc(F)cc(F)c3)CC[C@@H]21,-7.1[16.7 µM],6.7
C[C@H](O)C#Cc1ccc2c(c1)O[C@@H](CN(C)C(=O)CC1CC1)[C@@H](C)CN([C@H](C)CO)S2(=O)=O,3.3[16.7 µM],6.4
C[C@@H]1CN([C@@H](C)CO)C(=O)c2cccc(NC(=O)c3ccc(-c4nccs4)cc3)c2O[C@@H]1CN(C)Cc1ccc(C(=O)O)cc1,-4.2[16.7 µM],-3.2
# Next entries.
SMILES,HIV Env fusion,UUG fidelity
Cc1noc(C)c1S(=O)(=O)Nc1ccc2c(c1)CC(=O)N([C@H](C)CO)C[C@@H](C)[C@H](CN(C)C(=O)Nc1cccc3ccccc13)O2,3.1[16.7 µM],1.8
CC(=O)N(C)C[C@@H]1Oc2cc(C#CCN(C)C)ccc2S(=O)(=O)N([C@@H](C)CO)C[C@H]1C,-8.3[16.7 µM],-12.1
C[C@@H]1CN([C@H](C)CO)C(=O)c2cccc(N(C)C)c2O[C@@H]1CN(C)S(C)(=O)=O,-24.7[16.7 µM],-9.5
C[C@@H]1CN([C@H](C)CO)S(=O)(=O)c2ccc(C#CC3CCCC3)cc2O[C@H]1CN(C)C(=O)Nc1cc(F)ccc1F,24.8[16.7 µM],-16.6
O=C(C[C@@H]1C=C[C@H](NS(=O)(=O)c2cccc(F)c2)[C@@H](CO)O1)NCc1ccc2c(c1)OCO2,10.9[16.7 µM],-12.5
N#C[C@H]1[C@@H](c2ccc(C3=CCCCC3)cc2)[C@@H](CO)N1S(=O)(=O)c1cccc(F)c1,9.5[16.7 µM],-9.3
CN(C)C(=O)C[C@H]1C[C@H]2c3cc(NC(=O)Nc4ccccc4)ccc3O[C@H]2[C@H](CO)O1,7.8[16.7 µM],-1.7
C[C@H](CO)N1C[C@H](C)[C@H](CN(C)CC2CCCCC2)Oc2ccc(NC(=O)Nc3ccc4c(c3)OCO4)cc2CC1=O,21.6[16.7 µM],5.1
O=C(C[C@@H]1C[C@H]2c3cc(NC(=O)CC4CC4)ccc3O[C@H]2[C@H](CO)O1)NCc1ccc2c(c1)OCO2,-3.9[16.7 µM],46.5
C[C@@H]1CCCCO[C@@H](CN(C)S(=O)(=O)c2cn(C)cn2)[C@H](C)CN([C@H](C)CO)C(=O)c2cc(NC(=O)Nc3ccc4c(c3)OCO4)ccc2O1,-0.2[16.7 µM],8.6
Cc1ccc(S(=O)(=O)Nc2ccc3c(c2)CC(=O)N([C@H](C)CO)C[C@H](C)[C@H](CN(C)S(C)(=O)=O)O3)cc1,14.6[16.7 µM],3.1
O=C(Cc1ccccn1)NCC[C@@H]1CC[C@H](NS(=O)(=O)c2ccccc2)[C@H](CO)O1,-7.0[16.7 µM],-3.0
CNC[C@@H]1Oc2cc(C#CC3CCCCC3)ccc2S(=O)(=O)N([C@@H](C)CO)C[C@H]1C,-5.6[16.7 µM],29.6
CC(C)CC#Cc1cnc2c(c1)C(=O)N([C@@H](C)CO)C[C@@H](C)[C@H](CN(C)S(=O)(=O)c1cccs1)O2,8.5[16.7 µM],-0.8
O=C(C[C@H]1CC[C@H]2[C@@H](COC[C@@H](O)CN2S(=O)(=O)c2cccc(F)c2)O1)NC1CCC1,1.5[16.7 µM],7.5

# Marked active in HIV Env fusion, among the entries above:
SMILES,HIV Env fusion,UUG fidelity
COc1ccc(S(=O)(=O)N(C)C[C@@H]2Oc3ccc(NC(=O)Cc4cn(C)c5ccccc45)cc3CC(=O)N([C@H](C)CO)C[C@@H]2C)cc1,75.9*[16.7 µM],3.7

# Full records from above. Order of values: HIV Env fusion	UUG fidelity
# C[C@@H]1CN([C@H](C)CO)S(=O)(=O)c2ccc(C#CC3CCCC3)cc2O[C@H]1CN(C)C(=O)Nc1cc(F)ccc1F is listed as 24.8[16.7 µM]	-16.6
# Cc1noc(C)c1S(=O)(=O)Nc1ccc2c(c1)CC(=O)N([C@H](C)CO)C[C@@H](C)[C@H](CN(C)C(=O)Nc1cccc3ccccc13)O2 is listed as 3.1[16.7 µM]	1.8
# Cc1ccc(S(=O)(=O)Nc2ccc3c(c2)CC(=O)N([C@H](C)CO)C[C@H](C)[C@H](CN(C)S(C)(=O)=O)O3)cc1 is listed as 14.6[16.7 µM]	3.1

# Not all compounds are listed. The share of hits here may be higher or lower than overall.
